Assay outcomes as filed in PubChem.
Six1-Eya2 blk = Six1/Eya2 interaction inhibition; Q15475+O00167; AlphaScreen GST-Six1/His-Eya2 binding, biochemical; active compounds read low; control for the full effect not named in the record; activity change, % (concentration not given with the values); 0.56% of 360,000 active; in the data active = activity change below about -65%; inconclusive = about -30% to -65%; inactive = above about -30%; further: on the % scale 0 is the no-effect control and ±100 the full control effect
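Six1/Eya2 binding was read as AlphaScreen signal after compounds were pinned into GST-Six1 plus His-tagged Eya2 (5X stock 250/500 nM) in pH 8.0 Tris/NaCl/TCEP buffer, beads added, then incubated 1 h, 37 C, dark.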
D2 ag = agonists of human D2 dopamine receptor (beta-arrestin); P14416; DiscoveRx PathHunter D2 beta-arrestin, luminescence, 90 min; 100% = 57 uM dopamine signal; activation, % (no concentration beside the values); 0.084% of 360,000 active; in the data active = activation above about 40%; inconclusive = about 15% to 40%; inactive = below about 15%; further: compound concentration not given in the record; the text of the record calls up to 30% inactive
Target sequence (P14416 whole entry, looked up): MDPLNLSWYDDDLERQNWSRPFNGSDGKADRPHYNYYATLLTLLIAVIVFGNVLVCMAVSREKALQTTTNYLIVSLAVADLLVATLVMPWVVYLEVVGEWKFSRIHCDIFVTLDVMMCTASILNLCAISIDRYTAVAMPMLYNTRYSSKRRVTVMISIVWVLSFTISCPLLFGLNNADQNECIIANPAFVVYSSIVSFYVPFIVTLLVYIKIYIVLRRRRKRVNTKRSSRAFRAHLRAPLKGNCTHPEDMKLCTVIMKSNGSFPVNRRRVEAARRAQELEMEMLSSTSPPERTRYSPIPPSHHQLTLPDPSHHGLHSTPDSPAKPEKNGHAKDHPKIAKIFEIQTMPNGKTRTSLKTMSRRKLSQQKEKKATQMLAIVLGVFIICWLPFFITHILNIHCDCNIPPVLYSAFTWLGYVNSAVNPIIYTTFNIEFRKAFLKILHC
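DiscoveRx PathHunter D2 beta-arrestin cells (2,100/well) attached overnight, then compound-stimulated 90 min at 37 C in HBSS/10 mM HEPES/0.1% Tween-20 buffer; beta-galactosidase complementation read by luminescence after 1 h at ambient temperature. Dopamine 57 uM final (EC100) as control.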
TRPML1 agonist = agonists of human TRPML1 channel; Q9GZU1; TRPML1-expressing cells, Ca2+ dye fluorescence, FDSS; host cell line not named in the record; reference of the full effect not given here; activation, % (test concentration not listed); 0.12% of 410,000 active; in the data active = activation above about 50%; inconclusive = about 30% to 50%; inactive = below about 30%; further: 0% is about no effect; the text of the record puts the active cut at 80%
Target sequence (Q9GZU1 whole entry, looked up): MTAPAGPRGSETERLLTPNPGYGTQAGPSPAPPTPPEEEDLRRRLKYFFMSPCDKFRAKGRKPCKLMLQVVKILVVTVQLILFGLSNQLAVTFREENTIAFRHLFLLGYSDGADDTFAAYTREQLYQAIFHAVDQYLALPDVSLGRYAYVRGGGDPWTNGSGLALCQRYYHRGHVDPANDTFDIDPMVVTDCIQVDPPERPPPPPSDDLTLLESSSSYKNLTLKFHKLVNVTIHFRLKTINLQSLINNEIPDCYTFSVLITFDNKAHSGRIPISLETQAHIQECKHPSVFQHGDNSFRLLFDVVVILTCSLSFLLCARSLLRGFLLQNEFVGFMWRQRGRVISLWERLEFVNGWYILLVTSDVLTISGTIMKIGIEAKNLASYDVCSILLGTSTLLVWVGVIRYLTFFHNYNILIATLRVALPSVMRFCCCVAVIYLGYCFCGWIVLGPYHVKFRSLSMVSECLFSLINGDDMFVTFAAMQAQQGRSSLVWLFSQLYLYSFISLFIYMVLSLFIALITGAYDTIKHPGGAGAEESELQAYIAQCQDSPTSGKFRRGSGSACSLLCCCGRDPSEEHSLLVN
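Calcium fluorescence on an FDSS kinetic reader gave the read-out. Tet-induced TRPML1-DL cells were plated overnight, dye-loaded (Ca8 with quencher, 45-90 min, room temperature, dark), then read 110 s after compound addition, and again 110 s after 4uM final 54-4 (EC80).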
CtBP-E1A inh = inhibitors of CtBP/E1A interaction. AlphaScreen GST-E1A/His-CtBP binding, 1536-well; active compounds read low; control for the full effect not named in the record. activity change, % (test concentration not listed). 0.49% of 340,000 active. AID 651724; in the data active means activity change below about -65%; inconclusive means about -30% to -65%; inactive means above about -30%; further: on the % scale 0 is the no-effect control and ±100 the full control effect
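AlphaScreen with 125 nM GST-E1A and 125 nM His-CtBP (5X stocks) in Tris pH 8.0, 300 mM NaCl, BSA, Tween 20, TCEP. Compounds preincubated 2 h at 37 deg C, then glutathione donor/nickel acceptor beads added for 1 h at 37 deg C in dark.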
PINK1 expr mod = PINK1 expression modulation. AID 624263. PINK1 immunofluorescence, high-content cytometry, 24 h. 0.2% of 410,000 active. Potency, µM (doses to about 76.6 µM), inactives show top-dose activation (PINK1 increase), usual class: activators; active = well fitted activation curve with a large enough effect; inconclusive = small, poorly fitted or top-dose-only effect; inactive = flat fitted curve, though single readings scatter; cell line not stated here;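 further: potency means the concentration at half of the fitted maximal effect; % of control where 0% means no effect; nearly all actives have a fitted effect of over 65% in size; a mitochondrial uncoupler was the plate control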
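Stable cell line treated 24 h with compounds at 5 concentrations (CCCP controls), then fixed and immunostained for PINK1 plus nuclear and cell stains; PINK1 immunofluorescence quantified by laser-scanning microplate cytometry.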
D2 PAM = human D2 receptor positive allosteric modulation; P14416; DiscoveRx D2 beta-arrestin cells, luminescence, 90 min; 100% = 57 uM dopamine signal; potentiation, % (no concentration beside the values); 0.23% of 360,000 active; AID 624464; active = potentiation of 50% or more; inconclusive = 30% to 50%; inactive = 30% or less;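 further: compound concentration not given in the record; tested on top of an EC20 dose of dopamine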
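PathHunter beta-arrestin assay in DiscoveRx D2 cells. Compounds were added with an EC20 of dopamine (50 nM final) for 90 min at 37 deg C. Luminescence was read 1 h after detection reagent, with 57 uM dopamine as the EC100 control.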
* marks the source's active call; other numbers are inactive results; ? = inconclusive; nt = not tested or not shown; & = joins results of further samples; [ ] = another dose, or the depositor's remark.

cpd	smiles	Six1-Eya2 blk	D2 ag	TRPML1 agonist
1	Cc1ccsc1C(=O)NNC(=O)c1ccc(NS(=O)(=O)c2cccs2)cc1	8	-1.3	1.7
2	CCN1/C(=C/C=C/C=C/C=C/c2sc3ccccc3[n+]2CC)Sc2ccccc21	-1	-3.5	2.1
3	COC(=O)c1ccc(NC(=O)CN2CCN(c3ccccn3)CC2)cc1	0	46*	-0.7
4	COC(=O)COc1cccc2c(=O)n(CC(=O)NCc3ccccc3)ccc12	-2	0.3	0.2
5	CCN1C(=O)C(CC(=O)NCc2ccc(Cl)cc2)N(CC)C1=O (stereo not drawn)	3	1.2	0.5
6	Cc1ccc(N2C(=O)N(C(C)C)C(C)(C)CC2(C)O)cc1 (stereo not drawn)	2	-0.9	0.6
7	CCOC(=O)C1=C(N)n2c(s/c(=C\c3cccnc3)c2=O)=C(C(=O)OC)C1c1cccnc1 (stereo not drawn)	-4	3.3	-0.4
8	Cc1cc(C)nc(SCCS(=O)Cc2ccc(Cl)cc2)n1 (stereo not drawn)	6	-4.0	0.7
9	NS(=O)(=O)c1cccc(NC(=O)COC(=O)c2ccccc2C(=O)c2ccccc2)c1	-4	1.7	0.3
10	CCc1nnc(NS(=O)(=O)c2ccc(N)cc2)s1	-3	0.9	-0.4
11	COc1ccc(NS(=O)(=O)c2ccc(Oc3ncccn3)cc2)cc1	8	1.2	0.2
12	COc1cccc(Oc2ncnc(N)c2[N+](=O)[O-])c1	-10	-5.7	0.6
13	CC(C)C(=O)Nc1nnc(SCc2cccc(F)c2)s1	4	-3.4	-0.5
14	C[C@H]1CN([C@@H](C)CO)C(=O)c2cccc(NC(=O)c3ccc(-c4nccs4)cc3)c2O[C@@H]1CN(C)C(=O)NC1CCCCC1	-3	-3.9	0.0
15	Cc1ccc([N+](=O)[O-])c(NC2OC(CO)C(O)C2O)c1 (stereo not drawn)	11	-3.9	-1.0

cpd	CtBP-E1A inh	PINK1 expr mod	D2 PAM
1	3	-2.9%	-2
2	-2	?	-11
3	-2	-1.0%	13
4	1	4.0%	-1
5	2	8.7%[38.3 µM]	-6
6	3	1.9%	-1
7	12	8.0%	-9
8	4	-0.8%	-8
9	?	-1.0%	-2
10	4	-0.2%	-1
11	-3	0.3%	0
12	nt	0.9%	-9
13	9	1.7%	-1
14	0	-1.3%	-13
15	3	2.6%	-17

More records follow.
cpd	smiles	Six1-Eya2 blk	D2 ag	TRPML1 agonist
16	Cn1nccc1C(=O)N1CCCC(C(=O)c2cccc3ccccc23)C1 (stereo not drawn)	-17	-1.1	-0.1
17	CCOc1cc(CNCCSc2nnnn2C)cc(Br)c1OCc1ccc(F)cc1	13	7.3	1.7
18	CCOc1cccc(N2C(=O)CC(N3CCC(C(N)=O)(N4CCCCC4)CC3)C2=O)c1 (stereo not drawn)	5	-1.7	-0.6
19	COC(=O)c1ccc(NC(=O)c2cccc(OC)c2)cc1	-2	-9.2	0.4
20	COc1cc(/C=N/NS(=O)(=O)c2ccc(C(C)(C)C)cc2)cc([N+](=O)[O-])c1O	-12	-6.0	-0.3
21	CCC(C)(C)NC(=O)C(c1ccc(O)cc1)N(C(=O)Cn1nnc2ccccc21)c1ccc(NC(C)=O)cc1 (stereo not drawn)	-26	-0.7	0.0
22	CCNC(=S)NNC(=O)c1ccc(S(=O)(=O)NCc2ccco2)cc1	0	-6.6	0.6
23	CC(=O)N1CCN(C(=O)c2cccc(S(=O)(=O)Nc3c(C)n(C)n(-c4ccccc4)c3=O)c2)CC1	-2	0.9	-0.1
24	CC(C)OC(=O)c1cc2c(ccn2C)n1CC(=O)N(Cc1ccccc1)c1ccccc1	-21	-6.3	2.6
25	CCNc1nc(ON=C(C)C)nc(N(C)C)n1	-1	-0.3	-0.3
26	CCOc1ccc(C2C=C(c3ccccc3)Nc3nnnn32)cc1 (stereo not drawn)	0	-2.7	0.1
27	COC(=O)c1ccc2c(=O)n(C3CCCCC3)c(SCC#N)nc2c1	3	-2.3	-0.3
28	Cc1c(NS(=O)(=O)c2cc(C(=O)NC(C)c3ccccc3)ccc2Cl)c(=O)n(-c2ccccc2)n1C (stereo not drawn)	6	4.2	0.4
29	COc1ccc(CCNC(=O)CCCn2c(=O)c3cccn3c3cccnc32)c(OC)c1OC	-1	-2.7	-1.7
30	CCCSc1nnc2n(N)c(=O)c3ccccc3n12	4	-1.2	0.6

cpd	CtBP-E1A inh	PINK1 expr mod	D2 PAM
16	-15	-2.1%	-2
17	1	-3.5%	-12
18	2	0.0%	8
19	2	4.3%	-6
20	-6	-2.1%	-23
21	-12	4.9%	-7
22	-5	-0.6%	-9
23	-22	2.2%	-14
24	-16	14%	-3
25	1	-0.3%	-4
26	5	5.4%	-11
27	13	6.8%	-6
28	5	2.8%	15
29	-6	0.8%	-13
30	-1	5.4%	13

Structures above that bear a hit mark in D2 ag.
nr	SMILES	Six1-Eya2 blk	D2 ag	CtBP-E1A inh	PINK1 expr mod	D2 PAM
3	COC(=O)c1ccc(NC(=O)CN2CCN(c3ccccn3)CC2)cc1	0	46*	-2	-1.0%	13

Next structures follow.
cpd	smiles	Six1-Eya2 blk	D2 ag	TRPML1 agonist
31	O=C(O)c1ccccc1NCCO	10	-1.6	-0.2
32	CC(Oc1ccc(Cl)cc1)C(=O)N1CCCc2ccccc21 (stereo not drawn)	1	-1.2	2.2
33	O=[N+]([O-])c1ccc(-c2nnc3cccc(Cl)n23)cc1	1	2.6	0.1
34	Cc1cc(F)ccc1NS(=O)(=O)c1c(C)nc2scc(C)n2c1=O	3	2.8	0.6&0.4
35	CCCCNS(=O)(=O)C1CCS(=O)(=O)C1 (stereo not drawn)	-1	-0.2	-0.6
36	CCC(C)N1CCC2(CC1)N=c1c(c3c4c5c(C)c(O)c3c(O)c1=NC(=O)C(C)=CC=C[C@H](C)[C@H](O)[C@@H](C)[C@@H](O)[C@@H](C)[C@H](OC(C)=O)[C@H](C)[C@@H](OC)C=CO[C@@](C)(O5)C4=O)N2 (stereo partly drawn)	?	-5.9	-1.1
37	Oc1[nH]c(=S)sc1C=C1N=c2ccccc2=N1	-11	-2.5	0.4
38	COc1ccc(CN(CC(=O)NCC2CCCO2)C(=O)CCC(=O)Nc2cc(C)on2)cc1 (stereo not drawn)	2	-8.4	-0.7
39	O=C(c1ccc(Cl)c(S(=O)(=O)N2CCCCC2)c1)N1CCCC(C(F)(F)F)C1 (stereo not drawn)	8	2.9	3.0
40	Clc1ccc2oc(SCc3cccnc3)nc2c1	11	1.1	2.9
41	CCOc1cc(S(=O)(=O)n2cc(-c3ccc(F)cc3)c(N)n2)cc(OCC)c1OCC	-10	-1.4	1.9
42	CCC/C=C/c1ccc(CN2C(C)C(=O)N(Cc3cn(CC4CCCCC4)nn3)CCS2(=O)=O)cc1 (stereo not drawn)	-6	-8.0	0.5
43	CC1CCN(C(=O)C2CCCN(c3ncnc4c3nc3n4CCCCC3)C2)CC1 (stereo not drawn)	2	0.7	-1.5
44	CCOC(=O)c1[nH]cnc1C(=O)O	?	-2.2	-0.4
45	Cc1nnsc1C(=O)NNS(=O)(=O)c1ccccc1	2	0.0	0.1

cpd	CtBP-E1A inh	PINK1 expr mod	D2 PAM
31	3	0.1%	-3
32	-1	0.5%	-14
33	-16	-0.9%	3
34	0	-1.3%&0.4%	-3
35	4	2.6%	5
36	-20	11%	3
37	-7	-1.6%	-12
38	4	-0.9%	-9
39	-11	2.8%	-1
40	nt	1.7%	-12
41	-1	-1.1%	-27
42	-18	-0.2%	4
43	9	-0.2%	-3
44	-23	2.9%	-2
45	4	-1.2%	-23

More records
cpd	smiles	Six1-Eya2 blk	D2 ag	TRPML1 agonist
46	CCOC(=O)c1ccc(N=c2sc(C(=O)OC)cc(=O)n2Cc2ccc3c(c2)OCO3)cc1	-23	7.2	0.0
47	O=C(OCC(=O)N1CCCc2ccccc21)c1cccc(S(=O)(=O)N2CCOCC2)c1	2	7.1	0.2
48	CCOc1cc(CNCCO)cc(Br)c1OCc1ccccc1Cl	-2	-1.3	0.9
49	CCCC(=O)Nc1ccc(C(=O)N/N=C2\CC(=O)CC(C)(C)C2)cc1	2	-2.1	1.1
50	O=C(Cn1c(=O)c2cccn2c2ccc(F)cc21)N1CCN(c2ccc(F)cc2)CC1	4	-4.7	0.1&1.3
51	COC(=O)C1C(O)=C(C=Nc2cccc3ccccc23)C(=O)CC1(C)C (stereo not drawn)	34	-0.7	-0.1
52	Cc1ccccc1Oc1nc2c(C)cccn2c(=O)c1/C=C(\C#N)C(=O)NC1CCS(=O)(=O)C1 (stereo not drawn)	-3	0.8	0.2
53	O=C(NCCc1ccccc1)C1CCCN(C(=O)NC2CCCCC2)C1 (stereo not drawn)	5	-1.3	0.4
54	O=c1c2c(ncn1Cc1ccccc1)nc1n2CCC1	-2	3.0	0.4
55	CC(=O)Oc1ccc(Cn2c(C)c(C(=O)N(C)Cc3ccc(F)cc3)sc2=O)cc1	0	7.6	1.1
56	CCOC(=O)C1CCCN(C(=O)CNC(=O)c2ccc(Br)o2)C1 (stereo not drawn)	8	0.1	0.3
57	COc1cc(/C=C(/C#N)C(=O)Nc2ccccc2)ccc1OCc1ccc(C(=O)O)cc1	0	0.8	0.4
58	CCCCc1ccc(NC(=S)NCCO)cc1	12	0.7	2.4
59	Cc1ccc(S(=O)(=O)N2CCC(N3CCC(C)CC3)CC2)cc1	-19	-2.9	0.4
60	C#Cc1ccc([C@@H]2C=C(C(=O)O)O[C@H](OCc3ccc(CO)cc3)C2)cc1	5	-0.5	-0.8
61	COCCN(C(=O)c1ccc(N(C)S(=O)(=O)c2ccc(C)cc2)cc1)c1c(N)n(CC(C)C)c(=O)[nH]c1=O	1	-1.8	1.8

cpd	CtBP-E1A inh	PINK1 expr mod	D2 PAM
46	-12	6.4%	-11
47	0	0.0%	-9
48	-2	0.7%	-41
49	3	6.1%[38.3 µM]	-6
50	0	4.2%&2.3%	-11
51	-23	1.4%	6
52	1	0.4%	-6
53	11	0.1%	-5
54	nt	0.4%	0
55	5	-0.1%	-6
56	-8	0.0%	-5
57	nt	1.8%	-5
58	2	0.7%	-8
59	10	1.1%	-13
60	-10	0.8%	-21
61	-19	0.2%	0

Part of the list above in a different format:
Values run as follows: Six1-Eya2 blk | D2 ag | TRPML1 agonist | CtBP-E1A inh | PINK1 expr mod | D2 PAM
59: Cc1ccc(S(=O)(=O)N2CCC(N3CCC(C)CC3)CC2)cc1
 : -19 | -2.9 | 0.4 | 10 | 1.1% | -13
58: CCCCc1ccc(NC(=S)NCCO)cc1
 : 12 | 0.7 | 2.4 | 2 | 0.7% | -8
53: O=C(NCCc1ccccc1)C1CCCN(C(=O)NC2CCCCC2)C1 (stereo not drawn)
 : 5 | -1.3 | 0.4 | 11 | 0.1% | -5
